High-throughput results: PubChem, National Center for Advancing Translational Sciences (NCATS)
Cruzain inh noDet: qHTS Assay for Promiscuous and Specific Inhibitors of Cruzain (without detergent) | Cruzipain (Trypanosoma cruzi), P25779 | purified cruzain, Z-FR-AMC fluorescence, no detergent | Potency, µM, inactives show max response, negative = inhibition, actives largely listed as inhibitors | hit rate 2.3% among 200,000;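 note: plate controls were enzyme without inhibitor for no effect and buffer without enzyme for full effect; nearly all actives have a fitted effect of over 40% in size; top concentration of the series not given in the record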
Target sequence (P25779 123-467 limits assumed): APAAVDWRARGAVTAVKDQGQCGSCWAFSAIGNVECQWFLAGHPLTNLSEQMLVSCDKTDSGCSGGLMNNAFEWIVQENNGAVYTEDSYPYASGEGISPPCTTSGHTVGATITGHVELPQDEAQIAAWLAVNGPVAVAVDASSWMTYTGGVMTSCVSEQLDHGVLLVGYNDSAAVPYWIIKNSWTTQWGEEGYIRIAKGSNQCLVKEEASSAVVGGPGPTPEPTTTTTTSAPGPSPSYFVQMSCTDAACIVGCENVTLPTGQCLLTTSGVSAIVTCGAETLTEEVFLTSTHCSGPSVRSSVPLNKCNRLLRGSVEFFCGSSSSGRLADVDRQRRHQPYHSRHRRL
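Detergent-free condition (0.00005% Triton X-100) in acetate buffer pH 5.5 with DTT. 1.5 nM enzyme and compound were pre-mixed 15 min, then 2 uM Z-FR-AMC substrate added; reaction progress from fluorescence change between first and third reads (60 s).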
SARS PLP yeast: qHTS of Yeast-based Assay for SARS-CoV PLP. S. cerevisiae expressing SARS-CoV PLpro, growth rescue; control for the full effect not named in the record. Potency, µM (doses to about 32.9 µM), for the others: at the highest dose activity, positive = growth rescue. hit rate 0.19% among 330,000; active means well fitted rising curve with a large enough effect; inconclusive means small, poorly fitted or top-dose-only effect; inactive means no such curve, though single readings can be large or run the other way; note: 0% is about no effect; nearly all actives have a fitted effect of over 55% in size; growth read by luminescence after 48 h
NS1 inh: qHTS Assay for Inhibitors of Influenza NS1 Protein Function | Potency, µM (top dose mostly 46.1 µM), for inactives: top-dose activity, positive = more growth | S. cerevisiae slowed by influenza A NS1, growth recovery by OD600 | hit rate 0.4% among 270,000; active means well fitted rising curve with a large enough effect; inconclusive means small, poorly fitted or top-dose-only effect; inactive means no such curve, though single readings can be large or run the other way; note: nearly all actives have a fitted effect of over 50% in size
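In this qHTS, NS1 from influenza A is expressed in budding yeast, where it slows growth. Cells are switched from glucose to 2% galactose medium (pH 6.0, -URA), treated with compound, and growth recovery is read at OD600.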
Lassa entry inh: qHTS for Inhibitors of binding or entry into cells for Lassa Virus; Lassa virus pseudotype entry inhibition, cell reporter; control for the full effect not named in the record; Potency, µM (doses to about 37.9 µM), inactives show top-dose activity change, negative = inhibition, usual class: inhibitors; hit rate 1.2% among 300,000; AID 540256, 2011; active means well fitted inhibition curve with a large enough effect; inconclusive means small, poorly fitted or top-dose-only effect, or effect the other way; inactive means flat fitted curve, though single readings scatter; tested in HEK293 cells; note: % is set by controls: 0 for no effect and ±100 for the full control effect; nearly all actives have a fitted effect of over 50% in size; luciferase read-out
Cruzain Triton: qHTS Assay for Promiscuous and Specific Inhibitors of Cruzain (with detergent). Cruzipain (Trypanosoma cruzi), P25779. purified cruzain, Z-FR-AMC fluorescence, 0.01% Triton. Potency, µM, for inactives: max response, negative = inhibition, actives largely listed as inhibitors. hit rate 0.43% among 200,000. AID 1478, 2009;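 note: plate controls were neutral wells for no effect and buffer without enzyme for full effect; nearly all actives have a fitted effect of over 40% in size; top concentration of the series not given in the record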
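15 min RT preincubation of 1.5 nM cruzain with compound, then 2 uM Z-FR-AMC added; kinetic AMC fluorescence, 60 s delta. Triton X-100 0.01%, pH 5.5.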
Marburg entry inh: qHTS for inhibitors of binding or entry into cells for Marburg Virus. Marburg virus pseudotyped entry inhibition, cell reporter; control for the full effect not named in the record; about a third of the inactives were read at about 46 µM. Potency, µM (doses to about 37.8 µM), without a hit: top-dose activity change, negative = inhibition, actives largely listed as inhibitors. hit rate 1.8% among 300,000. AID 540276, 2011; active = well fitted inhibition curve with a large enough effect; inconclusive = small, poorly fitted or top-dose-only effect, or effect the other way; inactive = flat fitted curve, though single readings scatter; tested in HEK293 cells; about a fifth of its hits are not listed in these tables; note: % is set by controls: 0 for no effect and ±100 for the full control effect; luciferase read-out
2A StopGo: High Throughput Screening for Foot and Mouth Disease Virus Antivirals. human cells with a luciferase reporter of 2A StopGo recoding; control for the full effect not named in the record. Potency, µM (series often up to 57.9 µM), for inactives: at the top dose signal change, negative = less light. hit rate 1.2% among 410,000; active = well fitted falling curve with a large enough effect; inconclusive = small, poorly fitted or top-dose-only effect; inactive = no such curve, though single readings can be large or run the other way; tested in HEK293T cells; note: % is set by controls: 0 for no effect and ±100 for the full control effect; nearly all actives have a fitted effect of over 45% in size; luciferase light after 4 h
RE007 growth inh: qHTS Assay for Inhibitors of the HIV-1 protein Vpr. S. pombe RE007 Vpr strain, BacTiter-Glo ATP luminescence, 24 h; control for the full effect not named in the record. Potency, µM (titrated, usually from 92.2 µM), inactives show at the top dose activity change, negative = less growth. hit rate 0.21% among 360,000; active = well fitted falling curve with a large enough effect; inconclusive = small, poorly fitted or top-dose-only effect; inactive = no such curve, though single readings can be large or run the other way;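 note: % is set by controls: 0 for no effect and ±100 for the full control effect; nearly all actives have a fitted effect of over 50% in size; the assay follows cell death caused by Vpr and the record does not say whether a fall means rescue or toxicity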
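Fission yeast RE007 carrying one integrated HIV-1 vpr copy, seeded at OD 0.01 in PMG+AL medium with 23 nL pinned compound. Grown 24 h at 30 degrees; viability read by BacTiter-Glo luminescence after 5 min.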
Starred values were filed as active, the others as inactive; u = inconclusive; x = no result given; & = joins results of further samples; [ ] = remark or other dose. Unless noted, calls come from the whole dose curve; as a rule, active = well fitted curve in the direction sought with a large enough effect; inconclusive = small, poorly fitted or top-dose-only effect, or another doubt; inactive = no such curve, though single readings can be large; an effect the other way counts as inactive or inconclusive. Potency is the fitted concentration of half-maximal effect.

SMILES | Cruzain inh noDet | SARS PLP yeast | NS1 inh | Lassa entry inh | Cruzain Triton | Marburg entry inh | 2A StopGo | RE007 growth inh
Cc1cc(C)n(-c2nnc(C)n2/N=C/c2ccccc2F)n1 | 14% | 1% | -1% | 15% | 1.6% | u | 0% | 1%
O=C(c1ccc(F)cc1)c1cc2ccccc2o1 | -12% | 3% | -1% | u | -5.8% | 14% | 45%[activator] | -12%
CCc1cc2c(NCC3CCCO3)ncnc2s1 (stereo not drawn) | -2% | -3% | -3% | -3% | 4.0% | -8% | u | -12%
Cn1c(=O)cc(SCC(=O)NCc2ccc(F)cc2)c2ccccc21 | x | 1% | x | -12%[46.1 µM] | x | u | 4% | 0%
COc1ccccc1C1CC(c2ccc(F)cc2)Nc2ncnn21 (stereo not drawn) | 2% | -1% | 0% | -1% | 2.8% | -24% | -30% | -20%
COC(=O)c1cccc(NC(=O)Nc2ccc(Cl)c(Cl)c2)c1 | -2% | -42% | 10% | 33%[14.3 µM] | -15% | 20% | -22% | 20%
CCN(CC)C(=O)C1CCCN(Cc2ccc(F)c(F)c2)C1 (stereo not drawn) | 1% | 3% | 7% | -13% | -0.3% | 5% | u | -4%
O=C1CCC/C(=N\NC(=O)NC2CCCCC2)C1 | x | 0% | 4% | 1%[46.1 µM] | x | 9%[46.1 µM] | 3% | -7%
Cc1cccc(-n2ccnc2SCC(=O)Nc2ccc3c(c2)OCCO3)c1 | -4% | -4% | -54% | 8% | 2.7% | 20% | 2% | -1%
O=C(N/N=C/C=C\c1ccccc1[N+](=O)[O-])c1ccccn1 | 4% | -20% | -21% | 20% | -9.4% | 21% | 46%[activator] | -15%
Cc1c(CC(=O)NCC(=O)N[C@H](Cc2ccccc2)C(=O)O)c(=O)oc2cc(O)ccc12 | x | -1% | 5% | x | x | x | 0% | 3%
CCn1cc(C(=O)NN)c(=O)c2cc(F)c(N3CCN(C)CC3)cc21 | x | -4% | -1% | x | x | x | -20% | -18%
Cn1c(=NC(=O)C2CC2)sc2cccc(F)c21 | -13% | -2% | -13% | x | -5.7% | 0% | 41%[activator] | -23%
O=C(Nc1cccc([N+](=O)[O-])c1)c1cc(S(=O)(=O)N2CCOCC2)cs1 | x | -3% | 3% | -23% | x | 3% | u | -2%
Cc1noc(C)c1CSCC(=O)Nc1cc(S(=O)(=O)N2CCCCC2)ccc1OC(C)C | x | -7% | x | -16% | x | -20%[46.1 µM] | 1% | 12%
Cc1cc(S(=O)(=O)N(Cc2ccc3c(c2)OCO3)CC2CCCO2)ccc1-n1cnnn1 (stereo not drawn) | -3% | -10% | -4% | u | -2.4% | -3%&-3% | -1% | 7%
Cc1ccc(NC(=O)c2sc3ccccc3c2Cl)cc1 | -9% | x | x | 21%[46.1 µM] | -1.2% | x | 19% | x
O=C(Nc1nccs1)c1sc2cc(Cl)ccc2c1Cl | -26% | -7% | -4% | u | -3.1% | u | 36%[activator] | 0%
O=C(c1cnn(-c2ccc(F)cc2)c1-n1cccc1)N1CCN(c2ccccc2)CC1 | 19% | x | x | 17%[46.1 µM] | -6.1% | x | u | x
CCOc1cc(S(=O)(=O)NCc2ccccn2)ccc1Cl | 9% | -10% | -3% | -1% | 0.7% | 11% | 72%[activator] | 3%
Nc1c(C(=O)Nc2ccc(Cl)cc2F)sc2nc(-c3cccs3)ccc12 | 25µM* | x | x | -18%[46.1 µM] | -11% | u | 41%[activator] | x
Cc1cc(C)cc(NS(=O)(=O)CCCS(=O)(=O)Nc2cc(C)cc(C)c2)c1 | x | x | x | u | x | u | -12% | -7%
CCNc1nc(NC(C)C)nc(OCCOC(=O)c2ccccc2)n1 | -13% | 5% | -20% | -1% | -5.2% | -13% | 6% | 3%
CCc1ccc(NC(=O)CSc2nnc(C3CC3)n2CC2CCCO2)cc1 (stereo not drawn) | x | 4% | 2% | 0% | x | 0%[46.1 µM] | -12% | 1%
Cc1sc(NC(=O)/C=C/c2ccc(C(C)C)cc2)c(C#N)c1C | 25µM* | 2% | 3% | u | 1.3% | u | -12% | -5%

The listing continues.
SMILES | Cruzain inh noDet | SARS PLP yeast | NS1 inh | Lassa entry inh | Cruzain Triton | Marburg entry inh | 2A StopGo | RE007 growth inh
CCOc1ccc(C(=O)NCCc2cnc[nH]2)cc1 | x | 0% | -3% | 16%[46.1 µM] | x | 0%[46.1 µM] | 17% | 16%
Cc1ccc2oc(-c3cccc(NC(=O)c4sc5c([N+](=O)[O-])cccc5c4Cl)c3)nc2c1 | 0% | x | x | -9%[46.1 µM] | -0.2% | 2%[46.1 µM] | 11% | x
CC(=O)NC(C)Cc1ccccc1 (stereo not drawn) | 2% | 17% | 8% | 14% | 2.5% | 8% | -4% | 2%
CC12CCC(C(=O)Nc3c(Cl)cccc3Cl)(C(Br)C1=O)C2(C)C (stereo not drawn) | -3% | -1% | 23% | -1% | 3.0% | u | 0% | -14%
Cc1cccc(-c2nc3c(c(SCC(=O)N4CCOCC4)n2)COC(C)(C)C3)c1 | x | 3% | 2% | x | x | x | -17% | -11%
Cc1ccc(C)c(OCCC(=O)OCC(=O)N2c3ccccc3NC(=O)C2(C)C)c1 | x | 1% | x | 6% | x | 0% | -11% | 3%
Cc1ccc(S(=O)(=O)N2CCCCC2)cc1C(=O)OC(C)C(=O)NC1CCCCC1C (stereo not drawn) | x | 2% | x | -13% | x | -21% | 12% | 1%
CC1CC(C)CN(C2CCCCC2NS(=O)(=O)c2ccc(Cl)cc2)C1 (stereo not drawn) | x | 1% | -1% | -16%[46.1 µM] | x | u | -16% | -3%
COc1ccc(Nc2c3c(nc4ccccc24)CCC3)c(OC)c1 | x | -2% | -4% | u | x | u | -23% | -1%
CCOc1ccccc1N1CCN(C(=O)Nc2cccc(Cl)c2)CC1 | -6% | -17% | -22%[9.22 µM] | -19% | -11% | u | -22% | 12%
Cc1cccc(NC(=O)COn2nnc3ccc(S(C)(=O)=O)cc32)c1 | x | 1% | x | 11% | x | 10%[46.1 µM] | -5% | 25%
CCOc1cccc2cc(C(=O)Oc3ccc(OC)cc3)c(=O)oc12 | x | 0% | -55% | 1% | x | -21% | -10% | 3%
CCOC(=O)C1Oc2ccccc2C(C(=O)OC)=C1C(=O)OC (stereo not drawn) | -2% | 12% | x | x | -2.6% | x | -13% | -22%
CCOC(=O)c1ccccc1NC(=O)C1CC(=O)N(c2ccccc2)C1 (stereo not drawn) | x | 0% | -11% | x | x | x | -4% | 5%
CC(C)(C)CC(=O)Nc1cccc(-c2cn3cccnc3n2)c1 | x | 0% | 4% | x | x | x | 67%[activator] | 3%
CCCCn1c(N)c(N(CCOC)C(=O)C(C)Oc2ccc(Cl)cc2)c(=O)[nH]c1=O (stereo not drawn) | x | 4% | x | 0%[46.1 µM] | x | 22% | -8% | 11%
COc1ccc(C2CC(c3cccs3)=NN2C(=O)CSC2=NN3CCCC(=O)N=C3S2)cc1 (stereo not drawn) | u | 1% | 19% | x | -7.4% | x | -11% | 2%
N#CCOC(=O)c1sccc1-n1cccc1 | 1% | 7% | 14% | -5% | 1.2% | -4% | -9% | 2%
Cc1ccc(-c2nnc(Nc3ccccc3)c3ccccc23)cc1S(=O)(=O)NCc1nc2ccccc2[nH]1 | u | x | x | u | -6.1% | u | 27% | x
CCCn1nc(C(=O)OCc2nc(N)nc(Nc3ccccc3C)n2)c2ccccc2c1=O | x | 0% | x | 0% | x | -9% | -15% | -6%
CCn1c(COc2ccccc2OC)nnc1SCC#N | -4% | 3% | 6% | -3% | 5.3% | u | 0% | -10%
O=C(CSc1nncc2ccccc12)Nc1ccc(C(=O)O)cc1 | x | 8% | 2% | x | x | x | -5% | -3%
COc1cc(C(=O)OCC(=O)Nc2ccc3c(c2)OC(F)(F)O3)ccc1OCc1c(C)noc1C | u | 15% | 26% | -17% | -6.6% | u | -15% | 17%
CC(C)(C)OC(=O)N1CCC(c2c(C(=O)NCCN3CCc4ccccc4C3)cnn2-c2ccc(F)cc2F)CC1 | 5% | x | x | u | -2.7% | x | 0% | x
CC(C)Cn1c(=O)c2c(nc3n2CC(C)CN3Cc2ccccc2)n(C)c1=O (stereo not drawn) | x | 3% | -4% | u | x | u | -16% | 13%

The results go on:
SMILES | Cruzain inh noDet | SARS PLP yeast | NS1 inh | Lassa entry inh | Cruzain Triton | Marburg entry inh | 2A StopGo | RE007 growth inh
Cc1cc(NC(=O)CN2C(=O)c3ccccc3S2(=O)=O)no1 | x | 4% | 18% | 14%[46.1 µM] | x | 1%[46.1 µM] | -14% | 5%
COc1ccc(C(=O)NCCS(=O)(=O)N2CCc3ccccc3C2)c(OC)c1 | x | -7% | x | -18% | x | -1%[46.1 µM] | 0% | -4%
O=C(COC(=O)CN1C(=O)c2ccccc2C1=O)NC1CCCCC1 | x | 10% | 8% | 1%[46.1 µM] | x | 9%[46.1 µM] | 12% | 10%
COCC(=O)N(Cc1ccccc1)c1ccccn1 | 1% | 8% | u | 13% | 4.3% | 28% | 7% | 6%
Cc1cnc(C(=O)OCC(=O)Nc2ccc(Oc3ccccc3)cc2)cn1 | -18% | 0% | -12% | 9% | 6.2% | 16% | u | 0%
O=C(NCCCN1CCOCC1)c1cc2c(s1)-c1ccccc1OC2 | x | -1% | -13% | x | x | x | -10% | -8%
O=C(CF)NC(Nc1cccc2cccnc12)C(Cl)(Cl)Cl (stereo not drawn) | 7% | -3% | 2% | -18% | -10% | u | -16% | 2%
CN(C)S(=O)(=O)N1CCN(c2ccc(Cl)cc2)CC1 | 7% | 3% | -83% | 25% | -0.8% | -15% | 5% | -1%
CCOC(=O)c1sc(NC(=O)CCC(=O)O)nc1C | x | 0% | 5% | 14%[46.1 µM] | x | -1% | -16% | 12%
O=c1ncn(-c2ccccc2F)c2ncccc12 | -3% | -2% | -8% | 14% | 6.6% | 10% | 8% | -1%

This is a random part of the collection. Share with any hit: about 4.7%.
